HIV Env fusion: inhibitors of HIV-1 Env-driven cell-cell fusion, primary screen, HeLa-JRFL effector, CEM21 target cells, luciferase; inhibition, % at 12.3 µM; hit rate 1.1% among 360,000;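 active = mean replicate inhibition score of at least 50 and every replicate individually at or above 50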;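 also: 0% = plate neutral controls and 100% = maraviroc near 300 nM; one replicate is shown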
eIF4H inh: human eIF4H binding inhibitors, primary screen, translation initiation inhibitor project, biochemical, uHTS, fluorescence polarization | Eukaryotic translation initiation factor 4H (Homo sapiens), Q15056 | eIF4H fluorescence polarization binding assay | inhibition, % at 35 µM | AID 2012, 2009 | hit rate 0.94% among 290,000;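 active = 50% or more with normal probe brightness, or confirmed in later tests; about a fifth of its hits are not listed in these tables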;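 also: calls also rest on retests at 20 µM and on dose response follow-up; 0% = protein and probe with vehicle and 100% = probe without protein; strong numbers were not always called active; many hits fall short of the cut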
Yeast UUG start: modulators of yeast start codon fidelity, primary screen, whole organism, S. cerevisiae, single point, plate reader | S. cerevisiae UUG-firefly luciferase reporter, luminescence/redox ratio | activity score, % at 18.7 µM | hit rate 0.13% among 350,000 | AID 602363, 2012;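 active = replicate mean at a twofold rise or more, about +100% in these data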;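 also: firefly luciferase made from a UUG start codon reports start codon fidelity; reporter light over untreated wells divided by growth signal over untreated wells; some hits fall short of that in this replicate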
MT1-MMP act inh: blockers of MT1-MMP proenzyme processing, primary screen, HT1080 RFP-PRO-GFP cells, GFP/RFP fluorescence | Matrix metalloproteinase-14 (Homo sapiens), P50281 | GFP/RFP ratio fluorescence, overnight; percent of plate control window, DMSO zero | GFP/RFP ratio change, % at 20 µM | hit rate 0.061% among 360,000 | AID 651647, 2012;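 active = GFP/RFP ratio change of at least 30% with cell ATP level not reduced by more than half and red fluorescence within 50% of control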; also: strong numbers were not always called active
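Assay system: RFP-PRO-GFP reporter HT1080 cells; read-out basis: GFP/RFP fluorescence ratio; benchmarks: DMSO wells and RFP-L50D-GFP cells; doses: 20 µM single dose, 1% DMSO; schedule: overnight cell settling, then overnight compound exposure, 37 °C, 5% CO2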
Rce1 inh: yeast Rce1p protease inhibitors, primary screen, biochemical, fluorescence, cell-free homogeneous | CAAX prenyl protease 2 (Saccharomyces cerevisiae (strain ATCC 204508 / S288c)), Q03530 | yeast membranes, quenched prenylated peptide cleavage fluorescence | calls only | hit rate 0.27% among 290,000;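 active = fall in fluorescence gain of 50% or more versus controls, with final raw signal at or below 3038400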;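 also: plate controls were neutral control wells for no effect and wells lacking membranes for full effect; tested at 10 µM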
Target sequence (Q03530 whole entry, looked up): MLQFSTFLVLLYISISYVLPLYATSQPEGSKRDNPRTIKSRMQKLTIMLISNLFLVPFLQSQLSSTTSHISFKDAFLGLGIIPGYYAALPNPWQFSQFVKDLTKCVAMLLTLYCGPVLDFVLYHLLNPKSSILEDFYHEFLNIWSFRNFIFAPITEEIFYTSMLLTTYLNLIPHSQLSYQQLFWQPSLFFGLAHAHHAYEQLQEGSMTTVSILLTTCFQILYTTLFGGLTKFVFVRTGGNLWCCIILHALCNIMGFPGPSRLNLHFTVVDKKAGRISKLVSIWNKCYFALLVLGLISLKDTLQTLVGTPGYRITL
CSC inhib: cancer stem cell viability inhibitors, primary screen, luminescence; cancer stem cell-like cells viability; hit rate 1.1% among 300,000; inhibition, % at 7.5 µM;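 active = mean at 75% or more and at least half the replicates too; tested in HMLE shEcad cells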;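 also: 0% = median of negative and 100% = median of positive control wells; the first replicate is given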
PABP FP inh: PABP poly(A) RNA binding inhibitors, primary screen, biochemical, fluorescence polarization, uHTS; hit rate 1% among 290,000; Polyadenylate-binding protein 1 (Homo sapiens), P11940; inhibition, % at 35 µM; AID 2014, 2009;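 active = 50% or more with normal probe brightness, or confirmed in later tests; about a fifth of its hits are not listed in these tables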;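 also: calls also rest on retests at 20 µM and on dose response follow-up; controls were probe without protein and protein plus probe with vehicle; some compounds called inactive have numbers as strong as hits; many hits fall short of the cut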
eIF4H inh retest: second read-out of eIF4H inh, no call of its own (marks repeat the call); inhibition, %; compound at 20 µM; confirmation average;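 mean of two retest wells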
PABP FP inh retest: recorded beside PABP FP inh, whose call it bears; inhibition, %; compound at 20 µM; confirmation repeats;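 mean of two retest wells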
MT1-MMP act inh RFP: second read-out of MT1-MMP act inh, no call of its own (marks repeat the call); RFP signal change, %; measured here: RFP expression control read;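 0 = vehicle wells; hits needed this value within 50% of zero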
* marks the source's active call; other numbers are inactive results; i = inactive; nt = no result given; & = joins results of further samples; [ ] = remark or other dose.

SMILES | HIV Env fusion | eIF4H inh | Yeast UUG start | MT1-MMP act inh | MT1-MMP act inh RFP | Rce1 inh | CSC inhib | PABP FP inh | others
CC(C)N=Cc1c(O)[nH]c2ccccc12 | -6.8 | -7.8 | -1.3 | -1.0 | -0.4 | i | -3.8 | -9.3
CCC(C)NC(=O)C1(O)c2ccccc2NC(=O)N1c1ccc(C)c(C)c1 (stereo unspecified) | -2.3 | -6.7 | -9.6 | 0.9 | 2.7 | i | -2.0 | -2.1
COC(=O)C1=C(CS(=O)(=O)c2cc(Cl)ccc2OC)NC(=O)NC1c1ccc(O)c(OC)c1 (stereo unspecified) | 7.3 | -9.3 | -10.7 | -1.0 | 0.3 | i | -12.9 | -7.0
CC(=O)Nc1ccc(S(=O)(=O)Nc2ccccc2N2CCOCC2)cc1Cl | -15.0 | 9.2 | -5.7 | -0.6 | -2.3 | i | -27.1 | 4.3
Cc1cc(=O)[nH]c(SCC(=O)Nc2ccc(Br)cc2)c1C#N | -12.7 | -3.0 | -6.5 | 2.9 | -4.5 | i | 45.9 | 5.8
F[B-](F)(F)COc1ccccc1 | -86.8 | nt | -4.7 | 1.0 | 5.7 | nt | nt | nt
O=[N+]([O-])c1ccc2c(c1)c1ccccc1n2CCO | 22.7 | 6.5 | 3.9 | -0.4 | 1.1 | i | -7.0 | 1.5
CC(C)CCN(C(=O)CNC(=O)c1cccs1)C(C(=O)NC1CCCCC1)c1cccnc1 (stereo unspecified) | 40.1 | 1.1 | -2.8 | -7.6 | -0.6 | i | -13.7 | 2.0
COC(=O)c1cc(-c2ccc(Br)cc2)c2c(=O)n(C)c(=O)n(C)c2n1 | 20.8 | -10.3 | 1.6 | -2.5 | -1.1 | i | 9.0 | 2.7
Cc1ccc(OCC(=O)N/N=C/c2ccccc2)c([N+](=O)[O-])c1 | -10.9 | -10.7 | nt | -3.3 | -0.6 | i | nt | 9.3
COc1ccc(-c2nc(CS(=O)CC(=O)NCc3ccco3)c(C)o2)cc1 (stereo unspecified) | 8.6 | 11.2 | 6.1 | -2.2 | -0.3 | i | -11.7 | 3.0
C[C@H]1CN([C@@H](C)CO)C(=O)CCCn2cc(nn2)CO[C@@H]1CN(C)S(=O)(=O)c1ccc(Oc2ccccc2)nc1 | -10.8[16.7 µM] | nt | 9.0 | 1.4 | 3.3 | nt | nt | nt
COc1ccc(C(=O)COC(=O)CCNS(=O)(=O)c2ccc(NC(C)=O)cc2)c(OC)c1 | -7.9 | nt | -15.5 | 3.8 | 3.6 | i | -11.4 | nt
CS(=O)(=O)N(CC(=O)N1CCCC1)c1ccccc1Br | -5.9 | -9.4 | -17.6 | -3.9 | 6.4 | i | -8.0 | 2.6
Cc1nc2c3ccccc3nc(NNC(=O)CCC(=O)N3CCC(C)CC3)n2n1 | -1.4 | -4.4 | -6.1 | 2.7 | 3.7 | i | 3.5 | -4.6
COC(=O)c1[nH]c2ccc(C)cc2c1NC(=O)CN1CCCc2ccccc21 | -33.2 | 2.7 | nt | -22.8 | -2.4 | i | -6.5 | 7.0
O=C(Nc1ccccc1)NC1(C(=O)N2CCC(O)CC2)CCCCC1 | -7.9 | 8.5 | nt | -1.3 | 0.2 | i | -21.8 | 13.4
O=C(O)CC(NC(=O)c1cccc([N+](=O)[O-])c1)c1ccc2c(c1)OCO2 (stereo unspecified) | -7.3 | 3.3 | nt | -2.0 | 2.8 | i | -9.0 | -3.9
COc1ccccc1-n1c(=O)c2c3c(sc2n2c(=S)[nH]nc12)CCC3 | -1.7 | 18.4 | -15.7 | -4.8 | -3.6 | i | -4.6 | 16.6
COc1cc(C(=O)CSc2nccn2C)cc(OC)c1OC | 1.9 | -9.7 | -8.4 | 0.8 | 5.2 | i | -16.7 | -2.4
Cc1c(C(=O)NCCN2C(=O)S/C(=C\c3cccnc3)C2=O)cccc1[N+](=O)[O-] | 10.5 | -0.9 | -8.6 | 4.5 | -1.0 | i | 4.1 | -1.9
CCN(CC)S(=O)(=O)c1ccc2oc(C(=O)NCc3ccc(C)cc3)c(C)c2c1 | nt | -11.2 | -9.1 | -4.1 | -13.6 | i | 10.8 | -2.6
Cc1ccc(-c2nnc(SCC(=O)N(CC(C)C)c3c(N)n(Cc4ccccc4)c(=O)[nH]c3=O)n2N)cc1 | -27.9 | -5.2 | -16.3 | -5.6 | -2.2 | i | -4.3 | -0.1
COc1ccc(CN(C)CC(=O)Nc2ccc(Cl)cc2F)c(OC)c1 | 0.9 | 1.6 | nt | nt | nt | i | -13.8 | 15.3
OC(c1ccc2c(c1)OCO2)c1ncc(-c2cccc(C(F)(F)F)c2)[nH]1 (stereo unspecified) | -0.4 | nt | -13.5 | 1.5 | 3.6 | nt | nt | nt
O=c1[nH]ncc(NCc2ccc(Cl)cc2)c1Cl | -7.3 | 0.5 | nt | -1.4 | 0.8 | i | -6.5 | 52.8*
O=[N+]([O-])c1cc(S(=O)(=O)CCCN2CCOCC2)ccc1F | -12.0 | -5.1 | nt | 2.9 | 3.0 | i | -7.3 | 0.8
O=C(c1cnc(Cl)c(Cl)c1)N1CCN(S(=O)(=O)c2ccc(F)cc2)CC1 | 12.1 | 51.7 | -16.3 | -4.1 | -1.2 | i | 20.2 | 26.4 | eIF4H inh retest=2.0;PABP FP inh retest=4.9
COc1ccc(OC)c(S(=O)(=O)N2CCC(C(=O)NCc3ccccc3OC)CC2)c1 | nt | -3.3 | 2.1 | -0.4 | -0.2 | i | 5.1 | -6.0
O=C1Cc2cc(S(=O)(=O)N3CCN(c4ccc(C(=O)O)cc4)CC3)ccc2N1 | 3.3 | nt | -5.6 | 3.3 | 4.7 | nt | nt | nt
O=C(CCc1ccccc1)NC(NC(=S)Nc1cccc(Cl)c1)C(Cl)(Cl)Cl (stereo unspecified) | nt | 4.4 | -12.6 | -0.6 | -0.6 | i | 11.5 | 4.0
COc1cc(NC(=O)CN2CCC(Cc3ccccc3)CC2)c(C)cc1[N+](=O)[O-] | 10.1 | -2.2 | -1.9 | 0.8 | 1.0 | i | -2.8 | -8.6
O=C1Nc2ccc([N+](=O)[O-])cc2OC1CCN1CCN(Cc2ccc3c(c2)OCO3)CC1 (stereo unspecified) | 13.8 | -6.9 | 611.4* | 7.3 | -12.3 | i | -2.3 | -5.6
O=C(Cc1ccc(Br)cc1)c1ccc(O)cc1O | nt | -15.0 | 30.8 | 3.4 | -0.3 | i | 25.7 | -2.4
O=C(NC1CCCCC1)C(c1ccc(O)cc1)N(CC1CCCO1)C(=O)C1COc2ccccc2O1 (stereo unspecified) | -176.1 | 0.7 | 11.8 | 6.7 | -5.7 | i | -14.2 | 4.7
COC(=O)c1[nH]c2ccccc2c1NC(=O)CN1CCN(C/C=C/c2ccccc2)CC1 | nt | 5.2 | 2.9 | 2.0 | -10.7 | i | 0.1 | -3.3
COc1ccc(-n2nc3cc(C)c(NC(=O)C(C)C)cc3n2)cc1 | nt | -1.1 | nt | nt | nt | i | nt | -2.4
c1ccc(-c2nc(NCc3ccco3)c3oc4ccccc4c3n2)cc1 | nt | -8.4 | 1.9 | -1.3 | -0.6 | i | 35.6 | 9.1
CCN1CCCC1CNC(=O)c1ccc(N2CCCC2=O)cc1 (stereo unspecified) | -11.4 | -7.3 | -44.5 | -1.1 | 1.9 | i | -1.2 | 4.6
O=C(Nc1ccc(F)c(F)c1)C1CCCN1S(=O)(=O)c1ccc(F)cc1 (stereo unspecified) | 7.1 | 69.0 | -7.0 | -1.7 | -6.7 | i | -24.4 | 1.9 | eIF4H inh retest=-14.4;PABP FP inh retest=11.0
Cc1ccc(NC(=O)c2c(C)nc3ccccn23)cc1C | -79.7 | -0.4 | nt | 3.6 | 4.6 | i | -8.7 | 6.0
CC(C)C(NC(=O)c1ccc(C(C)(C)C)cc1)C(=O)NC1=NCCS1 (stereo unspecified) | -0.3 | -8.6 | nt | 4.8 | -0.2 | i | -8.8 | -5.8
C[C@H](CO)N1C[C@H](C)[C@@H](CN(C)C(=O)Nc2ccccc2)Oc2ccc(NS(=O)(=O)c3ccccc3)cc2C1=O | -15.1[16.7 µM] | nt | -13.3&20.2 | 2.2 | 6.0 | nt | -7.6 | nt
CN(CCOc1ccccc1)Cc1nc2cc(Cl)ccc2c(=O)[nH]1 | 6.5 | 3.0 | nt | -1.6 | 4.7 | i | -2.3 | -20.8
COc1ccc(C(=O)Nc2nc(C)cc(C)n2)cc1[N+](=O)[O-] | 12.1 | -1.1 | nt | 4.1 | 8.4 | i | -3.9 | -6.5
COc1ccc(NC(=S)NC(C)Cc2cccs2)cc1 (stereo unspecified) | 0.3 | 107.8* | -25.8 | -3.0 | 2.3 | i | -9.0 | 9.7* | eIF4H inh retest=102.0*;PABP FP inh retest=57.4*
Cc1cc(NC(=O)c2cccc(Br)c2)no1 | 4.4 | nt | nt | -3.0 | -5.0 | i | -9.2 | nt
Cn1c(SCC(=O)N2CCOCC2)nnc1-c1ccc2ncccc2c1 | 4.2 | -3.3 | -6.4 | -1.7 | 1.2 | i | -18.8 | 0.5
CC1Cc2cc(C3(O)C(=O)c4ccccc4C3=O)ccc2N1 (stereo unspecified) | nt | -1.1 | nt | 3.8 | 2.5 | i | -30.1 | 1.0
CCNNC(=O)C(O)(Cc1ccccc1)Cc1ccccc1 | -7.3 | -1.9 | -7.0 | 1.3 | -1.4 | i | -3.9 | 7.4
O=C(NCCN1CCCCC1)Nc1ccc(Br)cc1 | -30.3 | -4.0 | -10.1 | -1.0 | 1.9 | i | 4.9 | -3.8
CCC(C)NC(=O)[C@@H]1CSC2c3ccccc3C(=O)N21 (stereo partly specified) | 12.1 | 5.1 | -11.3 | 1.8 | 4.9 | i | -7.0 | -1.5
O=C(NC1CCCCCCC1)c1cccc(S(=O)(=O)N2CCOCC2)c1 | 4.1 | nt | -6.3 | 1.5 | -0.9 | nt | nt | nt
O=C(O)c1cccnc1NC1CCCC1 | nt | 12.5 | -17.1 | 0.7 | 4.9 | i | 10.1 | 13.9
c1ccc(CCNc2nc3ccccc3n3nnnc23)cc1 | nt | 9.0 | -18.4 | -5.1 | 6.4 | i | -1.6 | 8.4
CCN1/C(=C/c2ccc3cc(C)ccc3[n+]2CC)Sc2cc(C)ccc21 | 46.4 | -42.0 | 40.3 | -23.2 | 57.4 | nt | nt | -14.8
O=C1NCCCC1C(=O)N1CCN(C(c2ccccc2)c2ccccc2)CC1 (stereo unspecified) | nt | -1.6 | -19.9 | -14.3 | -6.5 | nt | -9.6 | -5.2

Molecules above containing two or more sulfur atoms, in the order listed:
SMILES | HIV Env fusion | eIF4H inh | Yeast UUG start | MT1-MMP act inh | MT1-MMP act inh RFP | Rce1 inh | CSC inhib | PABP FP inh | others
COc1ccccc1-n1c(=O)c2c3c(sc2n2c(=S)[nH]nc12)CCC3 | -1.7 | 18.4 | -15.7 | -4.8 | -3.6 | i | -4.6 | 16.6
COc1ccc(NC(=S)NC(C)Cc2cccs2)cc1 (stereo unspecified) | 0.3 | 107.8* | -25.8 | -3.0 | 2.3 | i | -9.0 | 9.7* | eIF4H inh retest=102.0*;PABP FP inh retest=57.4*

High-throughput results: PubChem, several laboratories
